Screening data from PubChem BioAssay.
Beta apoptosis: beta cell apoptosis inhibition; INS-1E cytokine-induced death, ATP luminescence, 48 h; percent of positive-control rescue, neutral wells zero; protection from apoptosis, % (concentration not given with the values); actives 0.8% (n = 300,000); AID 435005;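 active means all replicates at 75% or more, or half of them and the mean; inconclusive means half reach 75% but not the mean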;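 further: 0% = cytokine-treated negative control wells and 100% = positive control rescue; higher means more ATP so stronger rescue from cytokine killing; wells of about 40 µL received 100 nL stock; the first replicate is given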
rRNA inh HTS: inhibitors of bacterial rRNA selective over humanized ribosomes | actives 1.6% (n = 350,000) | AID 720706 | GFP signal change (wild-type ribosome), % (concentration not given with the values) | E. coli WT GFP vs humanized-ribosome RFP mutants, fluorescence, 24 h; stronger effect = lower value; DMSO median 0, no signal -100;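 active means significant combined selectivity score with lowered wild-type GFP, culture density cut under 30%, mutant RFP and density less affected; inactive means any of these conditions unmet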; further: one replicate is shown; some compounds called inactive have numbers as strong as hits
RanGTP-Impb inh: disruptors of Ran-importin-beta complex formation – biochemical, FRET, CFP-Ran, YFP-importin-beta, homogeneous, primary screen | cell-free CFP-Ran/YFP-importin-beta FRET ratio | inhibition, % (test concentration not listed) | actives 1.1% (n = 300,000) | AID 2216;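 active means most replicates above 15%; inconclusive means exactly half above 15%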;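 further: 0% = DMSO wells and 100% = Ran loaded with GDP instead of GTP; wells of about 40 µL received 100 nL stock; the first replicate is given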
Calb FLC: affects C. albicans growth with fluconazole | C. albicans CaCi-2 (fluconazole-resistant clinical isolate) + fluconazole, Alamar Blue growth, 48 h | growth inhibition, % (test concentration not listed) | actives 0.57% (n = 300,000);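 active means most replicates above 75%; inconclusive means exactly half above 75%; inactive means most below 75%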;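 further: all wells also contain fluconazole at 8 µg/ml as a sub-toxic cotreatment; 0% = median of DMSO wells and 100% = median of geldanamycin control wells; wells of about 8 µL received 7.5 nL stock; the first replicate is given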
ALR H2O2 inh: human ALR oxidase inhibition via reduced H2O2 | P55789 | purified ALR, DTT oxidation, H2O2 HRP-luminol luminescence | inhibition, % (no concentration beside the values) | actives 3.8% (n = 290,000);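 active means mean and each replicate at 75% or more; inconclusive means only one of the two met; inactive means neither met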;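 further: stock transfer was 7.5 nL into about 7.5 µL; 0% = neutral wells and 100% = wells with inactivated enzyme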
Target sequence (P55789 whole entry, looked up): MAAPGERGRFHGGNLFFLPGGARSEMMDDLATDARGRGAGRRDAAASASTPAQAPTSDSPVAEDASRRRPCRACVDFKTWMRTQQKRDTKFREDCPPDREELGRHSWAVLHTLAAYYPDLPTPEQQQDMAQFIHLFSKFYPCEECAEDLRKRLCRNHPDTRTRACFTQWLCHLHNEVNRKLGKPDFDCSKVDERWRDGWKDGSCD
FGF22 binding: binders of recombinant human FGF22 by thermal shift | Q9HCT0 | actives 1.5% (n = 340,000) | AID 651658 | calls only at 9.99 µM | SYPRO orange fluorescence; percent of sucrose octasulfate shift, DMSO zero;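 active means melting point raised past a set limit in the mean and every replicate; inconclusive means no clear call; three in four hits are not shown here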
Target sequence (Q9HCT0 whole entry, looked up): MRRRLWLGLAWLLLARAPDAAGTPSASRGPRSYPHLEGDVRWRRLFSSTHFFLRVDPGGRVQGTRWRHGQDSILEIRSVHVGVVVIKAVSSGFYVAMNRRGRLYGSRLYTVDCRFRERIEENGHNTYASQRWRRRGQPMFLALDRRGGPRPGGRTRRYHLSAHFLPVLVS
AF4-AF9 inh: inhibitors of human MLL-AF4/AF9 interaction; P42568; AlphaScreen, biotin-AF4 peptide binding to FLAG-AF9; inhibition, % at 10 µM; actives 0.47% (n = 350,000); AID 651704;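 active means every replicate reaching a set inhibition limit, whatever the replicate mean, cut at about 25% in these data; inconclusive means mean inhibition reaches that limit but some replicates miss it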;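 further: 0% = plate neutral control median and 100% = total signal loss; the record names both 10 and 1 µM as test concentration; the first replicate is given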
Target sequence (P42568 whole entry, looked up): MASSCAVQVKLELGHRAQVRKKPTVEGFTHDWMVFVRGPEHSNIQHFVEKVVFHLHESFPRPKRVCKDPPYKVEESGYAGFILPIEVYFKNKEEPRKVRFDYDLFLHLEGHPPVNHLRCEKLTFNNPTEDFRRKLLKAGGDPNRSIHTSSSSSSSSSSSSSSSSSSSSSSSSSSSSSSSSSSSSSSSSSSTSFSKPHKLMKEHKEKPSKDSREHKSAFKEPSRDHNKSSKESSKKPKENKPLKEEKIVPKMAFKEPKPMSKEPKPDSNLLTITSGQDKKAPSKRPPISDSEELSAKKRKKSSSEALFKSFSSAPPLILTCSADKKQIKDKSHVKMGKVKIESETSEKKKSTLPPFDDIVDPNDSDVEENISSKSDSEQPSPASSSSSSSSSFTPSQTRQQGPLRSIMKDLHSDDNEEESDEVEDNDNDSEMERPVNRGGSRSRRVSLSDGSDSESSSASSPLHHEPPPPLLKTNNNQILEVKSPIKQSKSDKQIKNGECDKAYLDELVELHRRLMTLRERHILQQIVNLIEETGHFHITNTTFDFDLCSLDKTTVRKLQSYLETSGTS
T cruzi repl: T. cruzi replication inhibition; actives 1.4% (n = 300,000); inhibition, % (no concentration beside the values); T. cruzi beta-gal in NIH3T3, luminescence, 90 h; AID 1885;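 active means mean inhibition across valid replicates above about 55%, limit read from the data; inconclusive means mean below that limit but half or more replicates reach it; inactive means mean below it, under half of replicates reach it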;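 further: signal also drops with host cell toxicity which is not excluded here; 0% = plate median of DMSO wells and 100% = zero luminescence signal; higher percent means less beta-gal luminescence so fewer parasites; stock transfer was 50 nL into about 50 µL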
rRNA inh HTS OD600: recorded beside rRNA inh HTS, whose call it bears; OD600 change, %; measured here: OD600 growth;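 optical density of the mix in the first replicate; 0 = DMSO median and -100 = no signal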
rRNA inh HTS RFP: second read-out of rRNA inh HTS, no call of its own (marks repeat the call); RFP signal change, %; measured here: RFP humanized mutant strains;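 first replicate; 0 = DMSO median and -100 = no signal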
The depositor's hits bear a star; i = inactive; ? = inconclusive; . = not tested or not shown. Not all compounds are listed. The share of hits here may be higher or lower than overall.

SMILES	Beta apoptosis	rRNA inh HTS	rRNA inh HTS OD600	rRNA inh HTS RFP	RanGTP-Impb inh	Calb FLC	ALR H2O2 inh	FGF22 binding	AF4-AF9 inh	T cruzi repl
CCOc1cc(N2CCOCC2)c(OCC)cc1NC(=O)COc1ccc2ccc(=O)oc2c1	1	.	.	.	1.1	5	-59	.	.	-6
Cc1ccc(C(=O)CSC2=C(C#N)C(c3ccco3)C3=C(CC(C)(C)CC3=O)N2)cc1 (stereo not drawn)	7	.	.	.	1.0	5	-13	.	.	20
COc1ccccc1NC(=O)NCC1CC1(Cl)Cl (stereo not drawn)	-2	1	1	-1.0	2.9	16	1	i	-6.9	-13
O=C(COCC(=O)N/N=C/c1ccc(F)cc1)N/N=C/c1ccc(F)cc1	7	.	.	.	1.7	8	-1	.	.	-11
CN(C)CCNc1c2c(nc3ccccc13)CCC2	6	12	8	6.9	6.0	16	-3	i	1.9	52
O=C(NC1CCCCC1)C(c1ccncc1)N(C(=O)c1csnn1)c1cccc(F)c1 (stereo not drawn)	-8	2	12	-0.8	-1.6	0	0	i	-2.7	0
Cc1onc(-c2c(F)cccc2Cl)c1C(=O)N1CCSCC1	-1	-29*	-17*	-4.5*	2.1	0	-9	i	-2.8	-4
Cc1ccccc1NC(=O)CN(C)S(=O)(=O)c1ccc(-c2ccc(=O)[nH]n2)s1	-4	1	9	1.4	6.8	-4	1	i	-1.1	10
Cc1cc(NC(=O)COc2cccnc2[N+](=O)[O-])no1	-7	4	3	-2.3	4.2	17	-76	i	-0.2	16
O=C(Nc1nccs1)c1ccc2c(c1)OCO2	-6	6	10	0.0	-1.8	0	-2	i	0.8	-12
S=C(NCc1ccccc1)NCc1cccc(Cl)c1	0	1	-25	-4.4	.	-11	-5	i	-2.7	.
CCOC(=O)C1(Cc2ccc(O)cc2)NC(c2ccco2)C2C(=O)N(c3ccccc3F)C(=O)C21 (stereo not drawn)	-2	.	.	.	-2.4	7	14	.	.	-18
COCCNC(=O)/C(C#N)=c1\s/c(=C\c2ccccc2OC(F)F)c(=O)n1Cc1ccccc1	9	.	.	.	?	5	-2	.	.	-9
CN(C)C(CNC(=O)c1cc2ccccc2o1)c1ccco1 (stereo not drawn)	1	14	13	-0.1	.	.	-3	i	-0.2	.
COc1ccc(C(=O)OCC(=O)N2C(C)CCCC2C)cc1S(=O)(=O)N1CCOCC1 (stereo not drawn)	-3	11	2	0.7	.	.	-3	i	-2.2	.
O=C(CCCN1C(=O)C(c2ccccc2)Oc2cccnc21)NCc1ccccc1Cl (stereo not drawn)	5	2	2	0.8	-1.6	-10	-20	i	-2.8	18
COc1ccc(-c2c(C)nn(Cc3ccccc3)c2N)cc1	-1	.	.	.	-0.8	-6	97*	.	.	-3
CCOC(=O)c1c(NC(=O)CN2CCCc3ccccc32)sc(C)c1CC	-10	9	8	40	-1.2	0	.	i	-2.1	10
CCc1nc(SCc2ccccc2C)n[nH]1	0	-3	11	3.8	4.0	-3	-1	i	-0.4	-12
CC(Sc1nc2ccccc2s1)C(=O)NCc1ccc2c(c1)OCO2 (stereo not drawn)	6	-26	-27	4.8	1.8	-30	?	i	3.7	3
Cc1nnc(SCC(=O)NC2CCCC2)n1-c1ccccc1	-2	.	.	.	.	.	2	i	-2.3	.
COc1ccc(C)cc1NC(=O)COC(=O)c1ccc2c(c1)OCO2	-2	1	10	-2.4	.	.	1	i	-3.6	.
Cc1cc(O)c(Sc2ccccc2)c(=O)o1	-9	14	9	-1.3	-1.7	9	-18	i	-3.1	-5
Cc1ccc(C(=O)OC(C)CN2CCOCC2)cc1 (stereo not drawn)	-1	-3	1	-2.9	-2.6	11	.	i	-6.6	-11
CCSc1nnc(NC(=O)CSC2=NCCS2)s1	-2	5	-7	-1.6	.	-22	27	i	-2.2	.
CCC(=O)Nc1c(C)c(CC)nc2ccccc12	-3	.	.	.	2.5	2	-31	.	.	-16
COc1cc(C=O)ccc1OCCCOc1ccccc1C(=O)O	1	.	.	.	2.3	0	-8	.	.	-2
Cc1ccc(-c2n[nH]c(=S)n2/N=C/c2cccn2C)cc1	-5	.	.	.	-0.7	20	51	.	.	-19
COc1ccccc1CNc1ccc2nnc(CCNC(=O)c3ccc(C)cc3)n2n1	2	0	-16	2.0	-2.5	-6	-2	i	.	-4
CC(C)NC(=O)CN(C(=O)CCC(=O)Nc1ccccn1)c1ccc(F)c(Cl)c1	-3	.	.	.	-0.5	14	-4	.	.	2
S=c1[nH]nc(Nc2ccccc2)s1	-2	-2	6	-0.2	0.1	2	99*	i	-3.9	10
CC(=O)C1CCCN(C(=O)c2ccc3nc(Cc4cccc(Cl)c4)oc3c2)C1 (stereo not drawn)	-5	-12	-9	-1.6	2.3	3	1	i	0.5	-1
Cc1ccc(C2=CC(=O)CC(C)(C)C2)cc1	4	5	7	-4.3	.	.	-4	i	-5.0	.
Cc1nc(C)c(C(=O)C2=C(O)C(=O)N(CCN3CCOCC3)C2c2ccco2)s1 (stereo not drawn)	-2	.	.	.	-7.3	1	-12	.	.	7
O=c1[nH]c(N2CCc3ccccc32)nc2c1CCCC2	13	.	.	.	-1.5	-2	.	.	.	16
CCCN(CCC)CCCNC(=O)c1cn(CC)c2ccc(S(=O)(=O)N(C)C3CCCCC3)cc2c1=O	-5	-1	0	2.5	5.9	11	-7	i	3.5	6
O=C(Nc1nc(-c2ccccn2)cs1)c1ccc(Br)s1	85*	.	.	.	1.6	93*	4	.	.	1
Cc1ccc(NC(=O)C2CCCN(S(=O)(=O)c3cnc[nH]3)C2)cc1C (stereo not drawn)	.	-1	-2	-0.9	0.5	-1	98*	i	-1.3	6
COc1ccc(C2=NOC(C)(c3sc(-c4ccc(Cl)cc4)nc3C)C2)cc1 (stereo not drawn)	-13	4	2	2.8	?	-5	.	i	-39	-3
COc1ccc(C(c2sc3nc(C)nn3c2O)N2CCN(CCO)CC2)cc1OC (stereo not drawn)	-2	8	6	-4.8	-2.0	-4	22	i	-2.4	2
CN(C)CCCNC(=O)C(=O)Nc1ccc2c(c1)N(S(=O)(=O)c1cccs1)CCC2	11	5	7	4.5	-0.2	-4	.	i	4.0	48
CC1(C)CCc2cc(-c3ccn(S(=O)(=O)c4ccccc4Cl)n3)ccc2O1	10	6	11	-0.4	-0.8	-4	-11	i	2.9	8
Cc1cc(C(=O)NC2CCCCC2)on1	-5	5	13	-0.9	0.6	-7	.	i	2.3	4
S=c1[nH]c2ccccc2n2cccc12	-2	-3	9	0.6	-2.4	-10	-6	i	-3.0	-10
COCCN(C(=S)Nc1ccc(C)cc1)C(C)c1ccco1 (stereo not drawn)	-3	7	0	0.3	-1.2	3	-12	i	-3.1	-12
O=C(Cc1ccccc1[N+](=O)[O-])NC1CC2CCC1C2 (stereo not drawn)	.	5	-5	-4.2	-1.4	13	1	i	-4.5	3
Cc1ccc2c(C(=O)CSc3ccccc3)c(C)[nH]c2c1	-2	.	.	.	-1.2	1	.	.	.	-5
O=C(CSC1=NS(=O)(=O)c2ccccc2N1)Nc1cccc(F)c1	-3	-1	-4	-1.6	-2.8	-1	.	i	1.5	-7

Three entries from above, sorted by heavy-atom count, rising.
SMILES	Beta apoptosis	rRNA inh HTS	rRNA inh HTS OD600	rRNA inh HTS RFP	RanGTP-Impb inh	Calb FLC	ALR H2O2 inh	FGF22 binding	AF4-AF9 inh	T cruzi repl
O=C(Nc1nc(-c2ccccn2)cs1)c1ccc(Br)s1	85*	.	.	.	1.6	93*	4	.	.	1
O=C(CSC1=NS(=O)(=O)c2ccccc2N1)Nc1cccc(F)c1	-3	-1	-4	-1.6	-2.8	-1	.	i	1.5	-7
COc1ccc(C2=NOC(C)(c3sc(-c4ccc(Cl)cc4)nc3C)C2)cc1 (stereo not drawn)	-13	4	2	2.8	?	-5	.	i	-39	-3

(cont.)
SMILES	Beta apoptosis	rRNA inh HTS	rRNA inh HTS OD600	rRNA inh HTS RFP	RanGTP-Impb inh	Calb FLC	ALR H2O2 inh	FGF22 binding	AF4-AF9 inh	T cruzi repl
O=C(CNC(=O)c1ccco1)N=Nc1c(O)n(CCc2ccccc2)c2ccccc12	17	-16	-13	4.3	1.0	2	.	.	-15	28
COc1ccc(N(C(=O)c2ccco2)S(=O)(=O)c2cc(Cl)c(Cl)cc2Cl)cc1	-6	.	.	.	1.0	12	-7	.	.	-46
CN(Cc1ccccc1)CC(O)COc1ccc(CNCc2nccn2C)cc1 (stereo not drawn)	-3	2	5	1.3	-0.5	-14	-9	i	15	11
CCC(C)(C)C1CCC2(CC1)NC(=O)N(CC(=O)NCCc1ccc(OC)c(OC)c1)C2=O (stereo not drawn)	-2	-6	-35	-4.1	.	.	-4	i	2.4	.
Cc1nc2ccccc2c(=O)n1NC(=O)c1ccccc1[N+](=O)[O-]	.	10	1	-2.1	7.1	-15	-5	i	-1.3	-20
O=S(=O)(Nc1cccnc1)c1cccc(Cl)c1	-2	.	.	.	2.1	20	34	.	.	-9
CN1CCC(N(C)S(=O)(=O)c2ccc(C(C)(C)C)cc2)CC1	0	8	11	-0.8	3.4	-2	-1	i	-1.8	65*
COc1ccc(S(=O)Cc2ccc(C(=O)N3CCN(C(=O)c4ccco4)CC3)o2)cc1 (stereo not drawn)	-3	6	2	0.0	3.9	7	-4	i	-3.0	-7
COc1ccc(CN2CC(C(=O)NCCCN3CCOCC3)CC2=O)cc1 (stereo not drawn)	-2	.	.	.	4.0	0	-6	.	.	-2
O=C(Nc1cccc(S(=O)(=O)N2CCOCC2)c1)c1cn(-c2ccccc2)nc1-c1ccccc1	7	-10	-8	1.3	3.1	28	-6	i	3.6	9
Cc1ccc(C(=O)NC2CC3CCC(C2)N3Cc2ccco2)cc1 (stereo not drawn)	-4	.	.	.	2.2	-3	-17	.	.	8
N#Cc1ccc(OCC(=O)NCC2COc3ccccc3O2)cc1 (stereo not drawn)	-2	-2	-6	2.6	.	.	.	i	0.6	.
O=C(CN(Cc1ccco1)C(=O)c1ccc([N+](=O)[O-])cc1)Nc1ccccc1C(F)(F)F	3	10	8	0.8	.	.	-4	i	2.6	.
CN(CC(=O)Nc1ccccc1Br)C(=O)CNC(=O)c1ccco1	0	8	16	1.3	-0.8	-8	0	.	1.2	-7
CC(=O)c1cccc(CN2CCN(CC(C)C)C(CCO)C2)c1 (stereo not drawn)	-11	.	.	.	-4.5	-2	-5	.	.	1
COc1ccc(C(=O)NC(C)(C)C)cc1S(=O)(=O)N1CCCC1	-5	3	12	-2.7	1.6	16	-21	.	.	-8
Cc1c(C(c2ccc(C(=O)O)cc2)c2c(C)n(C)n(-c3ccccc3)c2=O)c(=O)n(-c2ccccc2)n1C	-4	10	12	0.7	-0.2	-7	-1	i	0.5	-6
C/C(=N\OC(=O)c1cccc(Cl)c1)c1sc(C)nc1C	-7	.	.	.	7.1	6	.	.	.	-4
O=C(NCC1CCCN1S(=O)(=O)c1cccs1)c1c(F)cccc1F (stereo not drawn)	1	0	-2	0.3	-7.1	-8	-6	i	-2.8	14
CCOc1ccc(CCNC(=O)c2cc(C)nn2-c2ccccc2)cc1	-3	2	2	-6.7	6.8	-9	-7	i	-1.1	-9
